KCNQ2 inh = KCNQ2 potassium channel inhibitors, primary screen, cell-based, CHO-K1, FluxOR thallium flux, B-score (AID 2156); Potassium voltage-gated channel subfamily KQT member 2 (Rattus norvegicus), O88943; 20 min; stronger effect = lower value; only compounds with negative scores are shown here; some inactives read as strong as hits; B-score at 10 µM; 310,000 compounds, 1.1% hits;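 active = fluorescence ratio B-score at most minus 3 library SDs, with starting brightness B-score within 2 library SDs, cut at about -5.5 in these data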
Target sequence (O88943 whole entry, looked up): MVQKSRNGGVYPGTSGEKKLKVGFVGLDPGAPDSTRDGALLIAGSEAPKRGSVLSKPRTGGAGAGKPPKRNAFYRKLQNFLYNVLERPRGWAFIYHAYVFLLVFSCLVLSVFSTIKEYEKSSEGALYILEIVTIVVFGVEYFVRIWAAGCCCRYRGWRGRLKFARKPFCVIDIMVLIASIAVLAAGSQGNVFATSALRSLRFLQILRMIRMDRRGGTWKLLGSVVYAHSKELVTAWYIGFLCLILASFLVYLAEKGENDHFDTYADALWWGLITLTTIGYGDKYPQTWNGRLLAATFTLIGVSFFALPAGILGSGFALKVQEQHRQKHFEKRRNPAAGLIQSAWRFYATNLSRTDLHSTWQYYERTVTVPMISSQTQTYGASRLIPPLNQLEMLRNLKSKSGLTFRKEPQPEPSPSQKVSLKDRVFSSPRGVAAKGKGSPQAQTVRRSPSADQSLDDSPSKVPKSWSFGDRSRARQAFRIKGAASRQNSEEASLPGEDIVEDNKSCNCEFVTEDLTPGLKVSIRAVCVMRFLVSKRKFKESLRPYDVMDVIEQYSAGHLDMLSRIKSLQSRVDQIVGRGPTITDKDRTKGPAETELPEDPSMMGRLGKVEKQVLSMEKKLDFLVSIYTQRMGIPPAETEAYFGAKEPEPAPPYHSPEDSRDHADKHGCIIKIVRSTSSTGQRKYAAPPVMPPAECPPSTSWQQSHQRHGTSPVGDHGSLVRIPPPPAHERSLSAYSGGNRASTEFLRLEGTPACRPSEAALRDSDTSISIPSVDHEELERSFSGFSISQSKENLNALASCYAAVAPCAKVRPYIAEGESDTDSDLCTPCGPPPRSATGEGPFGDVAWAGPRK
KCNQ2 inh baseline = further read-out of KCNQ2 inh, marked with its call; B-score; measured here: initial fluorescence intensity artifact check;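 brightness before thallium and not channel activity; 0 = typical well and far values either way flag optical interference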
An asterisk follows results filed as active; i = inactive.

Start of the listing, in advance:
KCNQ2 inh	KCNQ2 inh baseline	smiles
i	0.98	CN1C(=O)CC(c2ccco2)Sc2ccccc21 (stereo unspecified)
i	0.96	CC(Cc1ccccc1)NC(=O)CC(c1ccccc1)c1ccccc1O (stereo unspecified)

The listing, from the first entry:
KCNQ2 inh	KCNQ2 inh baseline	smiles
i	0.98	CN1C(=O)CC(c2ccco2)Sc2ccccc21 (stereo unspecified)
i	0.96	CC(Cc1ccccc1)NC(=O)CC(c1ccccc1)c1ccccc1O (stereo unspecified)
i	2.7	Nc1ccccc1NC(=O)c1ccccc1
i	1.5	CCN(CC)S(=O)(=O)c1cccc(C(=O)NCC(c2ccccc2)N(C)C)c1 (stereo unspecified)
i	2.6	COC(=O)C(Cc1ccc(OC(=O)c2ccccc2Cl)cc1)N1Cc2ccccc2C1=O (stereo unspecified)
i	0.94	O=C(OCC(=O)N1CCOCC1)c1cc(F)c(F)cc1Cl
i	0.08	O=C(NCCN1CCN(C(=O)Nc2ccccc2)CC1)Nc1ccccc1
i	-0.57	CCN(CC(=O)NCc1ccc(Cl)cc1)C(=O)CN1C(=O)NC(CC)(c2ccccc2)C1=O (stereo unspecified)
i	-1.9	Cc1ccc(SCC(=O)NCC2CCCO2)cc1 (stereo unspecified)
i	0.51	CC(C)(C)NC(=O)COc1ccc(-c2ccccc2)cc1
i	-0.07	CC(=O)CSc1nc2cc3c(cc2cc1C#N)OCCO3
i	-1.8	CC1(c2ccc3ccccc3c2)NC(=O)N(CC(=O)N2CCN(S(=O)(=O)c3ccccc3F)CC2)C1=O (stereo unspecified)

Additional records:
KCNQ2 inh	KCNQ2 inh baseline	smiles
i	1.1	CN(C)S(=O)(=O)N1CCC(CCCC2CCN(S(=O)(=O)N(C)C)CC2)CC1
i	4	CCN1C(c2ccccc2)=C(c2ccccc2)S/C1=C\C=C1/SC(=S)N(C)C1=O
i	-0.58	COc1ccc(C(=O)N2CCOCC2)cc1S(=O)(=O)N1CCCc2ccccc21
i	0.84	CN(C)S(=O)(=O)N1CCC(Oc2cccc(C(=O)N3CCCCCCC3)c2)CC1
i	0.6	COc1ccc(CC(=O)NC2CCCCCC2)c(OC)c1
i	-1	COC(=O)C(C)Sc1nc2c(cnn2-c2ccc(F)cc2)c(=O)[nH]1 (stereo unspecified)
i	-0.47	O=C(/C=C/c1ccccc1[N+](=O)[O-])NCc1ccncc1
i	0.69	COc1ccc(OC)c(S(=O)(=O)N2CCNCC2)c1
i	0.37	CC(NC(=S)Nc1ccccc1)C1COc2ccccc2O1 (stereo unspecified)
i	-0.19	C=C(C)CSC1=C(C#N)C(c2ccccc2)CC(=O)N1 (stereo unspecified)
i	1.8	C/C(N)=C(/C#N)C(=O)CSc1ncnc2ccccc12
i	0.47	O=C(COC(=O)CNS(=O)(=O)c1ccc2ccccc2c1)Nc1ccc2c(c1)OCO2

Next part:
KCNQ2 inh	KCNQ2 inh baseline	smiles
i	0.47	O=C(NCCCN1CCOCC1)c1ccc(S(=O)(=O)Nc2ccccc2F)cc1
i	-0.28	Cc1ccc(S(=O)(=O)NCC(=O)OCC(=O)N2CCN(C(=O)c3ccco3)CC2)cc1C
i	-1.1	O=C(Nc1cccc(S(=O)(=O)Nc2ccccc2Cl)c1)c1ccc(N2CCCC2)c([N+](=O)[O-])c1
i	0.05	O=C(C1CCCCN1S(=O)(=O)c1ccccc1)N1CCN(C(c2ccccc2)c2ccccc2)CC1 (stereo unspecified)
i	-0.82	COc1ccc(CNC(=O)C(=O)NCc2cccnc2)cc1
i	-1.1	CCOc1ccc(CCNC(=O)CCOc2cc(C)ccc2C)cc1OCC
i	-0.38	Cc1csc(=O)n1CC(=O)OCC(=O)Nc1ccc(F)c(F)c1
i	-0.1	COc1cccc(C(=O)CC(=O)C(=O)Nc2cc(OC)c(OC)c(OC)c2)c1
i	-0.97	O=S(=O)(Nc1ccc(Cc2ccncc2)cc1)c1ccc(Br)s1
i	0.14	Cc1ccc2cccc(Oc3ncnc4sc(C)c(C)c34)c2n1
i	1.4	O=C(NCCCN1CCOCC1)c1ccc(CS(=O)(=O)Cc2ccccc2Cl)o1
i	-0.33	COc1cccc(NC(=O)C(C)OC(=O)CCCNC(=O)c2ccc(Cl)cc2)c1 (stereo unspecified)

(listing goes on)
KCNQ2 inh	KCNQ2 inh baseline	smiles
i	0.67	Cc1ccc(NC(=O)CN2CCc3ccccc3C2)cc1S(=O)(=O)N(C)C
i	1.4	NC(=O)c1ccsc1NC(=O)c1nc(-c2ccccc2)n(-c2ccccc2)n1
i	-2.5	CCc1nnc(NC(=O)CCc2ccccc2OC)s1
i	0.87	CN(C)S(=O)(=O)NCCNC(=O)c1cc(OCC(F)(F)F)ccc1OCC(F)(F)F
i	-0.66	Cn1c(CCN2CCCCC2)nc2cc(NS(=O)(=O)c3ccccc3)ccc21
i	-1.7	O=[N+]([O-])c1ccc(-[n+]2ccc3ccccc3c2)c([N+](=O)[O-])c1
i	0.01	CCOC(=O)c1c(C)[nH]c(C)c1S(=O)(=O)NCc1ccccc1OCC
i	-0.59	COc1cc(OC)cc(-c2nnc(SCC(=O)N(Cc3ccccc3)C(C)(C)C)o2)c1
i	2	COC(=O)CCCCNC(=O)Nc1ccccc1
i	-0.55	O=C(NCCCN1CCCC1=O)c1cccc(S(=O)(=O)NCc2ccccc2)c1
i	0.53	Clc1ccc(CSc2ccc(-c3ccccn3)nn2)cc1
i	0.06	COc1cccc(-c2nc(C(=O)NCCCN3CCOCC3)cc3c2[nH]c2ccccc23)c1

(continued)
KCNQ2 inh	KCNQ2 inh baseline	smiles
i	0.66	CC1=C(C(=O)OCCOc2ccccc2)C(c2ccc(C)o2)C2=C(CC(C)(C)CC2=O)N1 (stereo unspecified)
i	0.99	O=C(NNC(=O)c1cc(-c2ccc(Cl)c(Cl)c2)nc2ccccc12)Nc1ccccc1
i	-1.1	COc1ccc(NC(=O)Cc2c(SC)c3ccccc3n2Cc2ccccc2)cc1
i	0.08	S=C(c1ccc(-c2ccc(Br)cc2)o1)N1CCOCC1
i	0.15	O=C1c2ccccc2C(=O)N1CSc1nnc(Nc2ccccc2)s1
-6.5*	-0.38*	O=C(NCCc1ccc(Cl)cc1)c1cc(-c2ccccn2)nc2ccccc12
i	0.11	Oc1ccccc1CN1CCN(C(O)(c2ccccc2)c2ccccc2)CC1
i	-0.98	Cc1ccc(C(=O)N/N=C\c2ccc(OC(=O)c3cccc(F)c3)cc2)cn1
i	-0.92	CCN(c1nc(C)cc(OC)n1)S(=O)(=O)c1ccccc1
i	-2	COC(=O)c1ccc(NC(=O)CCc2nnc3ccc(N4CCC5(CC4)OCCO5)nn23)cc1
i	-0.84	Cc1cccc(CCNC(=O)COc2cc(=O)n(C)c3ccccc23)c1
i	0.94	CCN(C(=O)COC(=O)c1cc([N+](=O)[O-])ccc1N1CCOCC1)C1CCCCC1

Of the compounds above, these contain a nitro group on carbon:
KCNQ2 inh	KCNQ2 inh baseline	smiles
i	-0.47	O=C(/C=C/c1ccccc1[N+](=O)[O-])NCc1ccncc1
i	-1.1	O=C(Nc1cccc(S(=O)(=O)Nc2ccccc2Cl)c1)c1ccc(N2CCCC2)c([N+](=O)[O-])c1
i	-1.7	O=[N+]([O-])c1ccc(-[n+]2ccc3ccccc3c2)c([N+](=O)[O-])c1
i	0.94	CCN(C(=O)COC(=O)c1cc([N+](=O)[O-])ccc1N1CCOCC1)C1CCCCC1

New compounds follow:
KCNQ2 inh	KCNQ2 inh baseline	smiles
i	0.07	CCOC(=O)CC1C(=O)NC2CCCCC2N1C(=O)Nc1ccc(Cl)cc1 (stereo unspecified)
i	-1.3	COc1ccc(Cl)cc1-n1c(=S)sc2c(=O)[nH]c(SCC(=O)C(C)(C)C)nc21
i	1.1	CCOc1cc(C(=O)NCC(C)CN(C)C)cc(OCC)c1OCC (stereo unspecified)
i	2	Cn1cc(CNC(=O)C2CCCCC2)cn1
i	0.5	CN(C)CCC1Sc2ccccc2Oc2ccccc21 (stereo unspecified)
i	0.24	CC(Sc1ccccc1)C(=O)N1CCN(S(=O)(=O)c2ccccc2C(F)(F)F)CC1 (stereo unspecified)
-6.3*	-0.37*	COC(=O)c1cn(C(=O)c2cc(OC)cc(OC)c2)c2ccccc12
i	1.5	CCOCCOc1cccc(C(=O)NC(c2ccccc2)c2ccccc2)c1
i	0.03	CC(C)(C)NC(=O)CON=C1c2ccccc2-c2ccccc21
i	-1.4	COc1ccc(-c2nnc(SCC(=O)NNC(=O)c3ccc(C)cc3)o2)cc1
i	1	O=C(Nc1cccc(S(=O)(=O)NC2=NCCCCC2)c1)c1cc(-c2ccccc2)nc2ccccc12
i	-0.87	COc1ccccc1N1CCN(C(=O)C(C)N(c2ccc(C)c(C)c2)S(C)(=O)=O)CC1 (stereo unspecified)

Additional results follow.
KCNQ2 inh	KCNQ2 inh baseline	smiles
i	1.3	O=C1CC(Cc2ccccc2)C(=O)N1c1ccc(Cl)cn1 (stereo unspecified)
i	1.1	CCCCCC/C=N/Nc1nnc(Cc2ccccc2)c(=O)[nH]1
i	-0.7	COc1ccc2[nH]c3c(c2c1)CCN1C(=O)N([C@@H](C)C(=O)NC2CCCCC2C)C(=O)[C@]31C (stereo partly specified)
i	-2.1	Cc1ccccc1CNC(=O)C(=O)NCC1OCCCN1S(=O)(=O)c1ccc(F)cc1C (stereo unspecified)
i	1	CC1CCc2nn(CC(=O)NCCCN3CCOCC3)cc2C1 (stereo unspecified)
i	-0.02	COc1cc2c(cc1OC)CN(C(=O)c1oc3ccccc3c1C)CC2
i	-0.96	COc1ccc(CCNc2ccc(N3C(=O)CC(C)C3=O)cc2[N+](=O)[O-])cc1 (stereo unspecified)
i	0.95	CCOC(=O)c1sc2nc(N3CCOCC3)c3c(c2c1N)CCC3
i	1	Cc1ccc(S(=O)(=O)Nc2ccc(NC(=O)CN3CCCCC3)c(Cl)c2)cc1
i	-2.2	COc1ccc(-n2c(=S)[nH]c3cc(C(=O)Nc4ccc(C)c(F)c4)ccc3c2=O)c(OC)c1
i	-0.73	CCOC(=O)c1[nH]c(C)c(CN(C(C)=O)c2ccc(OCC)cc2)c1C
i	-0.3	Cc1c(Cl)cccc1Nc1nc(N)nc(CSc2nc3ccccc3s2)n1

(more compounds)
KCNQ2 inh	KCNQ2 inh baseline	smiles
i	1.5	O=C(CCCCCN1C(=O)[C@@H]2Cc3ccccc3CN2C1=O)Nc1ccccc1F
i	1.9	Cc1c(C(=O)NC2CCC(C)CC2)oc2ccccc12 (stereo unspecified)
i	1.2	CC(c1ccccc1)n1c(-c2cccs2)nc2c(c(=O)c3ccccc3n2C)c1=O (stereo unspecified)
i	2	O=C1CN(C(=O)COC(=O)C2=COCCO2)c2ccccc2N1
i	2.1	CCOc1ccc(-c2nc(N)nc(C)c2-c2ccc(Cl)cc2)c(O)c1
i	-1.7	CCOc1ccc(NC(=O)c2ccc3[nH]c(=O)c(=O)[nH]c3c2)cc1
i	-0.01	C/C(=N/NC(=O)c1cnccn1)c1ccncc1
i	0.02	CN(c1ccccc1)S(=O)(=O)c1cccc(NC(=O)CSc2ncn[nH]2)c1
i	-1.7	Cc1cc(-c2ccccc2)nc(N2CCC(C(=O)NC34CC5CC(CC(C5)C3)C4)CC2)n1
i	-0.53	CCCc1nnc(SCC(=O)O)n1/N=C/c1ccc2c(c1)OCO2
i	0.64	CCOc1ccc(NC(=S)N(CCCN2CCCC2)Cc2cccn2Cc2ccc(Cl)cc2)cc1
i	-0.23	Fc1ccc2[nH]c3c(Cl)ncnc3c2c1

Other structures follow.
KCNQ2 inh	KCNQ2 inh baseline	smiles
i	0.03	CCN(C(=O)Cn1cc(C(C)=O)c2ccccc21)c1ccccc1
i	-0.03	O=c1/c(=C/c2ccco2)sc2n1CN(c1ccccc1)CN=2
i	-0.05	Cc1cc(-c2ccccc2)nc(SCC(=O)c2cccc([N+](=O)[O-])c2)n1
i	0.06	Cc1ccccc1Cn1cnc2ccccc2c1=O
i	-1.1	COc1ccc(/C(O)=C2/C(=O)C(=O)N(CCCN3CCOCC3)C2c2ccc(C(C)C)cc2)cc1 (stereo unspecified)
i	1.8	CN(C)S(=O)(=O)N(CC(=O)N1CCN(Cc2ccccc2)CC1)c1ccccc1
i	-0.69	Cc1ccc(S(=O)(=O)c2c(N)n(CCC(C)C)c3nc4ccccc4nc23)cc1
i	3.1	Cc1nc2c3ccccc3n(CC(=O)c3ccc(F)cc3)c(=O)n2n1
i	1.3	COCCCN1C(=O)c2ccc(C(=O)OCC(=O)N(C)c3ccccc3)cc2C1=O
i	-0.8	Cc1ccc(C(C)C)c(OC/C(O)=C(\C#N)c2nc3ccccc3[nH]2)c1
i	1.4	COc1ccc(CNc2ccc(Cl)cc2)cc1Cn1ccnc1
i	-0.09	N/C(=N\S(=O)(=O)c1ccc(Cl)s1)c1ccccc1

(cont.)
KCNQ2 inh	KCNQ2 inh baseline	smiles
i	0.22	CCN(CC)S(=O)(=O)c1ccc(-c2nnc3sc4cccc(C)c4n23)cc1
i	-0.64	O=[N+]([O-])c1cccc(CNc2ccc3c(c2)CCC3)c1
i	-0.47	CCOC(=O)COc1ccc(C)cc1-c1ccno1
i	0.92	O=C(NCc1cccs1)C(=O)NCC(c1ccco1)N1CCN(c2ccccc2)CC1 (stereo unspecified)
i	1	CC(=O)Nc1cccc(C(=O)OC(C)C(=O)NC(=O)NC2CCCCC2)c1 (stereo unspecified)

Looked up above.
CCOC(=O)COc1ccc(C)cc1-c1ccno1 @ KCNQ2 inh baseline = -0.47
O=[N+]([O-])c1cccc(CNc2ccc3c(c2)CCC3)c1 @ KCNQ2 inh baseline = -0.64

Entries listed so far that have bromine:
KCNQ2 inh	KCNQ2 inh baseline	smiles
i	-0.97	O=S(=O)(Nc1ccc(Cc2ccncc2)cc1)c1ccc(Br)s1
i	0.08	S=C(c1ccc(-c2ccc(Br)cc2)o1)N1CCOCC1

High-throughput results (PubChem BioAssay)

An excerpt; the hit share may differ from the screen's.
